miR-21 reporter: raises the signal of a miR-21 reporter; 340,000 tested, under 10 active; HeLa miR-21 FLuc reporter, luciferase, 48 h; Potency, µM (series often up to 38.3 µM), without a hit: at the highest dose reporter change, positive = more light; active = well fitted rising curve with a large enough effect; inconclusive = small, poorly fitted or top-dose-only effect; inactive = no such curve, though single readings can be large or run the other way;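 note: % of control where 0% means no effect; miR-21 action dims this reporter so a rising signal means less miR-21 action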
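Compounds were titrated across several concentrations (up to approximately 40 uM) and incubated 48 hours with HeLa miR-21-FLuc reporter cells (miR-21 target sequence downstream of FLuc, endogenous miR-21). Readout was firefly luciferase luminescence after lytic detection reagent.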
Rango release inh: inhibition of RanGTP-driven Rango-importin beta dissociation; O95149+P62826; Biochemical FRET Rango-importin beta, RanGTP-induced dissociation; Potency, µM (series often up to 46.1 µM), without a hit: top-dose activity change, negative = inhibition; 0.071% of 340,000 active; active means falling FRET ratio curve, often poorly fitted, with flat reads before Ran was added; inconclusive means other falling curves, or compound fluorescence or quenching; inactive means flat or rising ratio curve;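 note: potency is the fitted concentration of half-maximal effect; % of control where 0% means no effect; nearly all actives have a fitted effect of over 45% in size; -100% = wells without RanGTP and RCC1; the record marks most hits as doubtful in a second field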
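Rango (0.1 uM)–importin beta (0.25 uM) complex; RanGTP-RCC1 trigger; 45 min RT; CFP/YFP FRET read.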
Rango complex inh: Rango-importin beta binding inhibition. Q14974. Rango CFP/YFP FRET sensor + importin beta, 45 min. Potency, µM (top dose mostly 92.2 µM), for inactives: at the highest dose inhibition of complex formation. 0.031% of 340,000 active; active = rising FRET ratio curve, often small or poorly fitted; inconclusive = mostly compound fluorescence or quenching in the first reads; inactive = flat curves in all reads;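 note: potency is the fitted concentration of half-maximal effect; 0% = DMSO wells and 100% = buffer wells lacking importin beta; nearly all actives have a fitted effect of over 15% in size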
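FRET biosensor (snurportin 1 IBB flanked by EYFP and cerulean), 50 nM, with compound 5 min, then 0.125 microM importin beta in PBS, 1 mM DTT, 0.02% Tween-20, 0.1% BSA. CFP/YFP ratio read after 45 min at room temperature; pre-read flags interference.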
GLA inh pH 4.5: blocks human alpha-galactosidase A at pH 4.5. AID 1467. P06280. activity change, negative = inhibition, % at 105 µM. 230,000 tested, under 10 active. purified enzyme, 4-MU-alpha-Gal fluorescence, pH 4.5; inconclusive = small, poorly fitted or top-dose-only inhibition, or a rising curve; inactive = flat fitted curve, though single readings scatter; no compound was filed as active;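 note: 0% = full activity with enzyme and -100% = basal without enzyme; dose as in the result columns while the protocol names 77 µM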
Target sequence (P06280 whole entry, looked up): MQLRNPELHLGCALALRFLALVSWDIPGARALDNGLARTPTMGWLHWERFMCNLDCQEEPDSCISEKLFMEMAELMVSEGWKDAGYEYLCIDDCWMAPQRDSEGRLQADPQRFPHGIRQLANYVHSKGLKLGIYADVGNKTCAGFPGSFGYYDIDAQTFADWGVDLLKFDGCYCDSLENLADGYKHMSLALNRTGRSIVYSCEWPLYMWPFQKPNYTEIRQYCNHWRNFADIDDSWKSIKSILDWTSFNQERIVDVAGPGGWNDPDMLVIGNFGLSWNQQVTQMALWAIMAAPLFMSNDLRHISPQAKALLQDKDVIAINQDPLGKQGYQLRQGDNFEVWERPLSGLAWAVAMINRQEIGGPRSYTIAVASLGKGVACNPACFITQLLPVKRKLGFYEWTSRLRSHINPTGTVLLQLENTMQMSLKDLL
* = called active by the depositor; ? = inconclusive; · = no result given; & = joins results of further samples. The list is partial (hit frequency here may not be typical).

| SMILES | miR-21 reporter | Rango release inh | Rango complex inh | GLA inh pH 4.5 |
| --- | --- | --- | --- | --- |
| Fc1ccccc1Nc1nc2c(s1)CCc1ccccc1-2 | -71% | · | · | 3 |
| COc1cc(NC(=O)c2cccnc2)c(Cl)cc1NC(=O)c1ccccc1 | 0% | 2% | 3.4% | · |
| O=C(NCc1cccnc1)/C(=C/c1ccc(Cl)cc1)NC(=O)c1ccccc1 | 2% | -12% | 1.8% | · |
| COc1ccc(C2Nc3ccccc3C(=O)N2c2ccc(Cl)cc2)cc1Cn1cc([N+](=O)[O-])cn1 (stereo not given) | -72% | 15% | -0.6% | 3 |
| COc1ccc(/C=C\C(=O)NCC(=O)N/N=C/c2ccc(O)cc2O)cc1 | 1% | -5% | -2.6% | -8 |
| CCC(C(=O)Nc1cnccn1)c1ccccc1 (stereo not given) | 1% | 22% | -3.7% | -29 |
| O=C(N/N=C/c1ccncc1)c1cccc(S(=O)(=O)Nc2ccc(Cl)cc2)c1 | 0% | -6% | -4.8% | -10 |
| CCCN1C(=O)/C(=C/c2ccco2)SC1=Nc1ccc(OC)cc1 | -15% | 4% | -3.5% | -4 |
| O=C(NNC(=O)C1COc2ccccc2O1)c1cccc([N+](=O)[O-])c1 (stereo not given) | -2% | -2% | -2.4% | -6 |
| CC1C/C(=N\NC(=S)NC(C)C)CC(C)(C)C1 (stereo not given) | -2% | 12% | -2.5% | 5 |
| FC(F)(F)c1ccccc1-n1ccnc1 | · | -6% | 1.5% | -1&9&-1 |
| COc1ccc(S(=O)(=O)N(C)CC(=O)NC2CC2)cc1 | -8% | -10% | -4.2% | 0 |
| O=C(Nc1ccc(-c2csc(Nc3ccc(Cl)cc3)n2)cc1)c1cccc(C(F)(F)F)c1 | ? | -14% | 0.6% | 3 |
| COc1cc(C(=S)N2CCOCC2)cc(OC)c1OC(=O)c1cccc(C)c1 | 6% | 4% | 3.2% | · |
| NC(=O)c1oc2ccc(Cl)cc2c1NC(=O)CN1CCOCC1 | 0% | -4% | 4.3% | -10 |
| CCCCCn1c(N)c(-c2nc3ccccc3o2)c2c([N+](=O)[O-])nn(C)c(=O)c21 | -8% | 1% | -2.1% | 0 |
| COc1ccc(-c2nc3c(c(=O)[nH]c(=O)n3Cc3ccccc3)n2C)cc1 | 0% | -7% | ? | 8 |
| Cc1ccsc1/C=N/n1c(=S)[nH]nc(C)c1=O | -8% | 3% | -7.0% | -3 |
| COC(=O)c1cc2occc2n1Cc1ccc(Cl)cc1 | -1% | -2% | -3.3% | -1 |
| CCOC(=O)c1ccc(NS(=O)(=O)c2c(N)n(C)c(=O)n(C)c2=O)cc1 | · | 1% | -0.4% | · |
| O=C(C1CCN(S(=O)(=O)c2cccc([N+](=O)[O-])c2)CC1)N1CCOCC1 | -1% | -11% | 0.0% | -18 |
| C1CCCCCC(=NNc2nn[nH]n2)CCCCC1 | 0% | -18% | 5.7% | 0 |
| CCn1c(C)c(C)c2cc(C(=O)N3CCN(c4ccccc4)CC3)ccc21 | -2%&-1% | -1% | -0.3% | · |
| O=C(NCC(c1cccs1)N1CCc2ccccc21)c1ccccc1 (stereo not given) | · | -9% | 2.8% | · |
| CC(C(=O)N1CCN(Cc2ccccc2)CC1)c1ccc([N+](=O)[O-])cc1 (stereo not given) | 0% | -7% | 0.7% | -2 |
| O=C(CSc1ncccn1)NCc1ccc(Cl)cc1 | -41% | -15% | -0.6% | 8 |
| COC(=O)N/N=C\c1c(C)nn(-c2ccccc2)c1Cl | -60% | 9% | 1.1% | 4 |
| O=C1CC(c2ccc(F)cc2)Cc2nc(N3CCN(c4ccccc4)CC3)ncc21 (stereo not given) | 0% | 1% | 0.7% | -7 |
| Cc1nc(C)n(C)c(=O)c1-c1ccccc1 | -1% | -13% | -0.9% | · |
| O=C(CCCCn1c(=O)c2ccccc2n(Cc2ccc(F)cc2Cl)c1=O)NCc1ccco1 | 10% | -9% | 0.9% | -10 |
| CCOc1ccc(NC(=O)c2ccc(NC(=O)COC(=O)Cc3ccc(OC)cc3)cc2)cc1 | -45% | 11% | 0.3% | 1 |
| COCC(C)NC(=O)c1cc(-c2ccc(O)cc2)on1 (stereo not given) | -49% | 38% | 0.3% | 2 |
| COc1ccc(N(CC(=O)N2CCN(c3ccccc3F)CC2)S(=O)(=O)c2c(C)n[nH]c2C)cc1 | -1%&7% | -2% | -1.0% | -15 |
| COc1ccc(OCc2cnc(Cl)s2)cc1 | -32% | 15% | -2.8% | 1 |
| CC(C)(C)OC(=O)N1CC(O)CC1C(=O)OCC(=O)c1ccc(Cl)cc1 (stereo not given) | -11% | -5% | 0.4% | 2 |
| CCC(C)[C@H](NC(=O)c1cc2cc(Cl)ccc2n1C)C(=O)N1CCC[C@H]1C(=O)O (stereo not given in full) | -8% | -4% | -2.7% | · |
| O=C(NNC(=O)c1ccc(Br)s1)c1ccc(F)c(S(=O)(=O)N2CCOCC2)c1 | · | 15% | -0.5% | · |
| CC(=O)Nc1cc2c(cc1C(=O)C(C)C)OCCO2 | -7% | -8% | 0.3% | 8 |
| CCn1c2ccccc2n2c(=O)c(=O)n(CC(=O)Nc3ccc(C(C)C)cc3)nc12 | -6% | -13% | -0.3% | -7 |
| Cc1nc2c(c(C)nn2-c2ccccc2)c(C)c1CCC(=O)Nc1ccc(CN2CCCC2)cc1 | -3% | 6% | -1.2% | -6 |
| Cc1ccc(C)c(N2N=C(C(=O)OCC(=O)N(C)c3ccccc3)CCC2=O)c1 | · | 3% | 3.0% | · |
| CC(C)Nc1nc(SCC(=O)Nc2ccccc2)nc(N2CCOCC2)n1 | -16% | -6% | -1.5% | -7 |
| CCn1c(COc2ccccc2)nnc1SCc1ccc(C#N)cc1 | -5% | 4% | 2.0% | 2 |
| CCOc1ccc(NC(=O)NC2(C(=O)NCc3ccco3)CCCCC2)cc1 | -9% | 12% | -0.8% | · |
| O=C(Nc1ccccc1O)c1csc2c1CCCC2 | -53% | 6% | 1.4% | -4 |
| O=C(NCc1ccc2c(c1)OCO2)c1ccc(-c2ccc(Cl)cc2)o1 | -11% | 2% | 5.3% | -3 |
| CC(C(=O)N1CCN(Cc2ccccc2)CC1)n1ncn2cccc2c1=O (stereo not given) | 0% | -1% | -2.2% | · |
| OCC1OC(n2ccc3c(NO)ncnc32)C(O)C1O (stereo not given) | · | ? | 2.8% | · |
| O=C(/C=C\Nc1ccccc1Br)c1ccc2c(c1)OCO2 | 21% | -12% | ? | -6 |
| CC#CC(=O)N1CCC(CCC(=O)N(C)Cc2ccccc2)CC1 | 0% | -9% | -2.6% | · |
| O=C(Nc1nc(-c2cccs2)cs1)c1ccc(Cl)cc1 | -13% | -6% | 1.0% | 3 |
| Cc1ccc(S(=O)(=O)NCCCn2ccnc2)cc1 | 0% | 2% | -7.0% | -13 |
| Cc1cc(C)cc(OCc2nnc(SCC(=O)OC3CCCCC3)o2)c1 | -8% | 1% | -0.1% | -5 |
| CC(C)(C)NC(=O)CSc1nc2[nH]ncc2c(=O)[nH]1 | 3% | -3% | -2.4% | -1 |
| O=C(c1ccccc1)n1ccn(-c2ccccc2)c1=S | -11% | -2% | -0.7% | -9 |
| COc1cccc(-c2cc(C(=O)Nc3nc4ccccc4s3)c3ccccc3n2)c1 | -1% | 1% | 0.1% | -7 |
| COc1cccc(CNC(=O)c2nnn(CC(=O)Nc3cc(C)ccc3C)c2N)c1 | -3% | 36% | -1.5% | · |
| O=C(NCCn1cccn1)C1CCC(=O)N(CCc2cccc(F)c2)C1 (stereo not given) | 0% | 2% | 0.0% | · |
| COCCNC(=O)c1cccc(C)c1[N+](=O)[O-] | -6% | 9% | 0.1% | -2 |
| COc1ccc(C(=O)N/N=C(\CCC(=O)O)c2ccc(C(C)(C)C)cc2)cc1OC | 14% | -5% | -6.0% | -5 |

Gathered by group: those above with bromine
| SMILES | miR-21 reporter | Rango release inh | Rango complex inh | GLA inh pH 4.5 |
| --- | --- | --- | --- | --- |
| O=C(NNC(=O)c1ccc(Br)s1)c1ccc(F)c(S(=O)(=O)N2CCOCC2)c1 | · | 15% | -0.5% | · |
| O=C(/C=C\Nc1ccccc1Br)c1ccc2c(c1)OCO2 | 21% | -12% | ? | -6 |

Next part.
smiles	miR-21 reporter	Rango release inh	Rango complex inh	GLA inh pH 4.5
CC1=C(C(=O)OC2CCCCC2)C(c2ccc(F)cc2)NC(=O)N1 (stereo not given)	5%	-3%	1.5%	·
O=C(NC1CC2CCC(C1)N2Cc1ccccc1)c1cccc(F)c1 (stereo not given)	-2%	37%	3.9%	·
Fc1ccc(C(c2nnnn2Cc2ccccc2)N2CCSCC2)cc1 (stereo not given)	-2%	-8%	-2.6%	-2
CN(C(=O)COC(=O)CNC(=O)C1CCCCC1)c1ccccc1	·	-2%	-0.8%	·
CC(=O)N1N=C(c2ccc(C(C)(C)C)cc2)OC1(C)C	0%	-2%	-0.5%	-4
O=C(CSc1ccc2nnc(-c3cccnc3)n2n1)NCc1ccco1	-2%	16%	-1.7%	7
CCc1noc(C)c1C(=O)N1CCCC(C(=O)c2cc(F)ccc2F)C1 (stereo not given)	3%	4%	-4.4%	7
Brc1ccc(CSc2nnc(-c3cccnc3)o2)cc1	-2%	-5%	-0.9%	-4
COCCNC(=S)N/N=C/c1ccc(OCc2ccc(C(=O)OC)cc2)c(OC)c1	-12%	5%	-2.7%	2
Cc1csc(NC(=O)Cc2ccc(F)cc2)n1	-48%	17%	-0.9%	·
CC(C)Oc1ccc(CNC(=O)C2CCCN(S(=O)(=O)N3CCOCC3)C2)cc1 (stereo not given)	1%	17%	4.2%	·
Cn1c(=O)c(C(=O)COC(=O)c2cc(C(F)(F)F)nc3c(C(F)(F)F)cccc23)c(N)n(CC2CC2)c1=O	0%	·	·	-15&2
CN(Cc1ccccc1)C(=S)NC(=O)C1CCCCC1	-27%	0%	-5.1%	10
COC(=O)c1cccc(N(CC(=O)NC2CCCC2)C(=O)CNC(=O)c2cccs2)c1	-4%	13%	2.8%	·
CCN=C1S/C(=C\c2cc(Br)c(O)c(OC)c2)C(=O)N1CC	-10%	?	?	·
CCOC(=O)[C@@H]1[C@H]2COc3cc(OC)ccc3[C@@H]2N2C(=O)N(c3cccc(C)c3)C(=O)[C@@]12C	5%	1%	-2.1%	·
COc1cc(OC)cc(-c2c(C#Cc3ccsc3)c3cc(-c4cnc(OC)nc4)ccc3n2C)c1	·	-1%	6.6%	·
CCc1nnc(NS(=O)(=O)c2ccc(NS(=O)(=O)c3ccccc3[N+](=O)[O-])cc2)s1	0%	0%	-0.4%	·
O=C(N/N=C/c1ccc([N+](=O)[O-])o1)c1cc(-c2ccncc2)nc2ccccc12	14%	-9%	-4.9%	-5
CSc1ccc(/C=N/n2nnnc2N)cc1	-25%	0%	-2.2%	1
Cc1cccc(OCC(=O)NCC(=O)N/N=C/c2cc(Br)cc(Br)c2O)c1	26%	?	?	·
COc1ccc2oc(=O)c(-c3nc(C)cs3)cc2c1	-39%	?	?	·
CC(=O)c1ccc(Nc2cc(C)nc3nc(C)nn23)cc1	-1%	-15%	-1.2%	-5
CCOC(=O)N1CCN(S(=O)(=O)c2cc3c(cc2C)NC(=O)CO3)CC1	-6%	12%	-1.2%	6

Part of the list above with just Rango release inh:
Compound | Rango release inh
COc1cc(OC)cc(-c2c(C#Cc3ccsc3)c3cc(-c4cnc(OC)nc4)ccc3n2C)c1 | -1%
O=C(N/N=C/c1ccc([N+](=O)[O-])o1)c1cc(-c2ccncc2)nc2ccccc12 | -9%
Cc1cccc(OCC(=O)NCC(=O)N/N=C/c2cc(Br)cc(Br)c2O)c1 | ?
CC(=O)c1ccc(Nc2cc(C)nc3nc(C)nn23)cc1 | -15%

Some of the entries above in a different format.
SMILES: CC(=O)c1ccc(Nc2cc(C)nc3nc(C)nn23)cc1
  miR-21 reporter = -1%
  Rango release inh = -15%
  Rango complex inh = -1.2%
  GLA inh pH 4.5 = -5

SMILES: CSc1ccc(/C=N/n2nnnc2N)cc1
  miR-21 reporter = -25%
  Rango release inh = 0%
  Rango complex inh = -2.2%
  GLA inh pH 4.5 = 1
